# High-throughput results (PubChem)
# KSHV LANA nucl – LANA-nucleosome interaction inhibition | FITC-LANA1-23 / chicken nucleosome fluorescence polarization; active compounds read low | z-score (concentration not given with the values) | actives 0.3% (n = 51,000) | AID 720717;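 active = both repeat wells score below -2 in polarization z-score versus plate sample wells, excluding overly bright wells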;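 note: 100 nL library stock added to about 30 µL; numbers are from one replicate; some results filed as inactive read as strong as hits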
#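 Assay system: FITC-LANA peptide and chicken nucleosomes; input: 240 nM purified chicken nucleosomes (480 nM peptide binding sites), final; also added: 50 nM FITC-LANA1-23 probe; medium: TEN-BT buffer, pH 7.5; doses: pin-transferred compound, 100 nL; times: 10–45 min, room temperature; technique: fluorescence polarization; replication: duplicates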
# Ab BasE inh – inhibitors of Acinetobacter baumannii siderophore enzyme BasE. purified BasE, fluorescence polarization binding displacement. actives 0.1% (n = 84,000). AID 485350. inhibition, % (concentration not given with the values);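 active = both replicates above 25% with normal brightness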;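 note: 0% = negative plate control signal and 100% = positive plate control signal; stock transfer was 100 nL into about 30 µL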
# Numbers without * were called inactive; · = no result given; & = joins results of further samples. The list is partial; count on the stated rates, not on these rows.
SMILES,KSHV LANA nucl,Ab BasE inh
CC1(C)NC(=CC(=O)C(F)(F)F)NC1(C)C,-0.37,0.9
Cc1csc(C(C#N)C(=O)COc2ccc(Cl)cc2)n1 (stereo not given),·,1.4
NC(N)=NCC1COC2(CCCCC2)O1 (stereo not given),-1.3,0.5
O=C1OCCC1Sc1nnc(COc2ccccc2Cl)n1C1CC1 (stereo not given),·,-1.8
COC(=O)C1=C(C)N(CC(C)C)C(=O)/C1=C\c1ccco1,·,0.5
CC(=O)Nc1ccc(CNC(=O)c2ccc(F)cc2)cc1,·,1.7
CC1=NN(C)C(=O)/C1=N\OC(=O)c1ccc(Cl)cc1,-0.41,1.0
COc1ccc2c(COC(=O)c3ccc4c(=O)n5c(nc4c3)CCC5)cc(=O)oc2c1,·,-0.7
O=S(=O)(c1ccccc1)N1CCN(S(=O)(=O)N2CCCCC2)CC1,-0.33,0.0
CCn1c(SC(C)C(=O)NCc2ccc(OC)cc2)nc2ccccc21 (stereo not given),·,-0.2
CCCCNS(=O)(=O)c1ccc(Cl)cc1,·,0.6
CCc1ccc(C2N=C3Oc4ccccc4C=C3C(=O)N2)cc1 (stereo not given),-0.39,1.9
Brc1ccc2ncnc(-c3ccccc3)c2c1,·,0.7
CCOC(=O)C1CCN(C(=O)CSc2ccc(Br)cc2)CC1,·,-2.1
CC(=O)Oc1ccc(Cl)cc1C1OC(c2nc3nc(C)cc(C)n3n2)=NN1C(C)=O (stereo not given),-0.98,-2.0
Nc1cccc(C(=O)NC2CC2)c1,·,0.1
CC(C)C(=O)N1N=C(c2cccc(NS(C)(=O)=O)c2)CC1c1ccccc1 (stereo not given),0.2,-2.9
FC(F)(F)c1nc(=S)c2ccccc2[nH]1,·,1.4
NNC(=O)COc1cccc(C(F)(F)F)c1,·,-0.5
Brc1ccc(-c2csc(NN=C3CCCC3)n2)cc1,-0.28,1.2
O=C(/C=C/c1ccccc1)Nc1nnc(/N=C/c2ccc(Br)s2)s1,·,0.8
CN1CC=C2C(C#N)=C(N)C(C#N)(C#N)C(CCc3ccccc3)C2C1 (stereo not given),-2.9*,22
CC1CN(CC(O)COC(c2ccccc2)c2ccccc2)CC(C)O1 (stereo not given),·,0.2
CCn1c(C(C#N)/C(=N\S(=O)(=O)c2cccs2)c2ccccc2)nc2ccccc21 (stereo not given),·,4.1
Cc1[nH]c(=O)c(C#N)c(C)c1CCC(=O)OCc1ccc(C#N)cc1,·,2.1

# Compound profiles, as listed above. Order of screens: KSHV LANA nucl, Ab BasE inh
# O=C1OCCC1Sc1nnc(COc2ccccc2Cl)n1C1CC1 (stereo not given) is entered as ·, -1.8
# Nc1cccc(C(=O)NC2CC2)c1 is entered as ·, 0.1

# Entries above with a thiophene ring, fused or not, in the order listed:
SMILES,KSHV LANA nucl,Ab BasE inh
O=C(/C=C/c1ccccc1)Nc1nnc(/N=C/c2ccc(Br)s2)s1,·,0.8
CCn1c(C(C#N)/C(=N\S(=O)(=O)c2cccs2)c2ccccc2)nc2ccccc21 (stereo not given),·,4.1

# (list continues)
SMILES,KSHV LANA nucl,Ab BasE inh
O=C(O)c1nn(CCN2C(=O)c3ccccc3C2=O)c(=O)c2ccccc12,·,2.7
O=C1C=CC(=O)C(C2=C3C(=O)N(Cc4ccccc4)CC(=O)N3CCC2)=C1,0.13,4.2
CC[C@H]1OC(=O)[C@H](C)[C@@H](O[C@H]2C[C@@](C)(OC)[C@@H](O)[C@H](C)O2)[C@H](C)[C@@H](O[C@@H]2O[C@H](C)C[C@H](N(C)C)[C@H]2O)[C@](C)(OC)C[C@@H](C)C(=O)[C@H](C)[C@@H](O)[C@]1(C)O,0.33&0.22&0.79&1.4,0.7
CC(Oc1ccccc1)C(=O)NC1CC(C)(C)NC(C)(C)C1 (stereo not given),0.46,-1.1
CCOC(=O)CN1C(=O)S/C(=C\c2ccc(C(=O)O)cc2)C1=O,·,-0.3
Cc1cc(C)c(C(=O)COC(=O)c2nccnc2N)cc1C,·,-0.1
COc1ccccc1OCCOc1ccc(F)cc1,-0.54,2.0
COc1ccc(-c2nc3n(c2NC(C)(C)C)CCN(C(=O)Cc2ccccc2F)C3)cc1,-0.68,1.9
Cc1ccc(C(c2nnnn2C(C)(C)C)N2CCC(C)CC2)cc1 (stereo not given),1,0.2
Cn1cc(CCCC(=O)O)c2ccccc21,0.65,3.8
CCOC(=O)C1OC(c2ccccc2)OC1C(=O)OCC (stereo not given),·,1.4
Cc1cc(-c2ccc(S(=O)(=O)N(C)Cc3ccccc3)cc2)on1,-0.23,0.0
CCC(CO)NCc1sccc1C (stereo not given),0.67,-1.7
CCSc1nnc(-c2ccccc2NC(=O)CC)c(=O)[nH]1,·,3.0
CC(=O)Oc1cc(-c2nc3ccccc3o2)cc(-c2nc3ccccc3o2)c1,-0.39,0.2
CCCCN(C(=O)Cn1ncc2c1-c1cc(C)ccc1OC2)C1CCN(C(C)=O)CC1,-0.18,1.4
Cc1nc(-c2c(C)[nH]c3ccccc23)cs1,·,3.7
CN(C(=O)CSc1nc(O)cc(=O)n1C1CCCC1)c1ccccc1,·,1.9
C=CCNC(=S)Nc1nccs1,·,3.8
CCOc1ccc(-n2nnc(C)c2C(=O)N2CCC(C(N)=O)CC2)cc1,0.15,-0.7
CC1CCC2(OC1)O[C@H]1C[C@H]3[C@@H]4CC[C@H]5C[C@@H](O)CC[C@]5(C)[C@H]4CC(=O)[C@]3(C)[C@H]1[C@@H]2C (stereo not given in full),2.2,-5.2
COC(=O)c1ccc(Oc2nc(N)nc(N(C)C)n2)cc1,-0.33,-0.9
CCC(=O)Oc1ccc(NC(=O)CSCc2ccccc2)cc1,0.53,-1.4
COc1ccc(O)c(C(=O)c2cnc(Nc3nc(C)c4ccccc4n3)nc2)c1,·,-17
CCn1c(C)nnc1SCC(=O)Nc1cccc(Cl)c1,-1.4,-1.9
# Next part:
SMILES,KSHV LANA nucl,Ab BasE inh
Oc1ccc(-c2n[nH]c(=S)n2CC2CCCO2)cc1 (stereo not given),0.38,4.9
CCCCCCSc1nc(O)c(CC)c(=O)n1-c1ccccc1,-0.36,0.0
CC(C)C(C(=O)NCc1ccco1)c1ccc(Cl)cc1 (stereo not given),·,2.5
COc1cccc(NC(=O)C(C)N2CCc3ccccc32)c1 (stereo not given),·,1.7
Cc1cccc(C)c1N1C(=O)CN(C(C)C)C1=S,·,0.3
CN(C(=O)CSc1nnc(Nc2ccccc2F)s1)C1CCCCC1,·,-0.8
COc1ccc(-c2ccn(-c3cccc(F)n3)n2)cc1,-1.6,·
O=C(OCc1ccc(-c2cc(C(F)(F)F)cc(C(F)(F)F)c2)o1)c1cccs1,·,0.0
O=c1n(Cc2ccccc2)nc2n1-c1ccccc1SC2,-0.26,3.3
Cc1c(-c2ccccc2)oc2c(C(=O)OCCN3CCCCC3)cccc2c1=O,0.055,0.3
CNc1nc(SCc2ccccc2)nc(N2CCOCC2)n1,0.52,0.1
O=C(NC(Cc1ccccc1)C(=O)N1CCN(c2ncccn2)CC1)c1ccco1 (stereo not given),·,1.1
C(=N\OCc1nc2c3cnn(-c4ccccc4)c3ncn2n1)/c1ccccc1,·,-6.4
COC(=O)c1ccc(-c2ccco2)n1Cc1cccc(C)c1,1.4,-1.3
O=C1NC(=Nc2ccc(F)cc2)CS1,-0.23,-3.3
CC(NS(=O)(=O)c1ccc(F)cc1)C(c1cccs1)N1CCN(c2ccccc2)CC1 (stereo not given),-1.3,0.3
COc1ccc(-c2cc(C(N)=O)on2)c(OC)c1,-0.23,3.3
CC(CC(=O)NCc1ccccc1)S(=O)(=O)c1ccc2c(c1)NC(=O)CS2 (stereo not given),0.54,-2.9
c1ccc2c(c1)c(NCc1ccc3c(c1)OCO3)nn1cnnc21,0.071,4.9
CN(C)c1ccc(/C=C/CN2CCSCC2)cc1,2.6,-0.6
N#C/C(=C\C=C\c1ccccc1)c1nc2ccccc2c(=O)[nH]1,·,-5.8
Cc1cc(C)c(C#N)c(SC2CCCCC2=O)n1 (stereo not given),·,1.5
COC(OC)c1ccc(C#N)c(SCc2ccc(C)cc2)n1,·,1.4
N#C/C=C1\n2c(nc3ccccc32)OC12CCCCC2,-0.34,0.7
Cc1nn(Cc2ccc(F)cc2)c2sc(C(=O)Nc3ccc(N4CCOCC4)cc3N3CCOCC3)cc12,·,-1.5
# Next part.
SMILES,KSHV LANA nucl,Ab BasE inh
CC(=O)Nc1ccc(CN2CCN(C/C=C/c3ccccc3)CC2)cc1,-0.26,-0.1
Cc1cc2ccccc2n1CC(=O)Nc1cccc(C(=O)NC2CC2)c1,·,1.2
COCc1nnc(NC(=O)/C=C/c2cc(OC)c(OC)c(OC)c2)s1,·,1.7
CC(Sc1nc2ccccc2c(=O)n1C)C(=O)NC(N)=O (stereo not given),·,-1.5
Cc1ccc(-c2ccc(=O)[nH]n2)cc1S(=O)(=O)N1CCOCC1,0.69,0.7
Cn1cccc1/C=C/C(=O)Oc1ccc2ccc(=O)oc2c1,·,0.7
CN(CC(=O)NC1CCCc2ccccc21)c1nnc(N2CCCC2=O)s1 (stereo not given),-0.28,1.8
CCOC(=O)c1c(C)[nH]c(C)c1C(=O)CN1C(=O)NC(CC(C)C)C1=O (stereo not given),·,0.7
CCCCN1C(=O)c2ccc(C(=O)OCc3csc(C)n3)cc2C1=O,·,2.9
CC(Oc1ccccc1-c1ccccc1)c1n[nH]c(=S)n1-c1ccccc1 (stereo not given),·,2.0
O=C(O)c1ccc(Nc2ncnc3c2cnn3Cc2ccccc2)cc1,·,1.1
CCOC(=O)c1ccc(-c2c(C)oc3cc(OC)c(CC)cc3c2=O)o1,·,-0.8
CN(C)S(=O)(=O)c1cccc(C(=O)OCC(=O)c2ccc[nH]2)c1,·,-1.4
O=C(Cn1cnc2ccc(Cl)cc2c1=O)N(c1ccccc1)C1CCS(=O)(=O)C1 (stereo not given),·,0.6
O=C(NCC1CCCO1)c1ccc(S(=O)(=O)N2CCCCC2)cc1 (stereo not given),-0.096,1.4
O=C(O)CC1=C(c2cccs2)N2CCN=C2S1,·,0.2
CC1(C)C(=O)Nc2ccccc2N1C(=O)Cn1nc(C(=O)O)c2ccccc2c1=O,·,1.1
CCCCCCC1CCC/C1=N\NC(N)=O (stereo not given),0.003,1.0
COc1ccc(CCNC(N)=S)cc1OC,0.53,-0.6
CC(=O)N1C(O)CCN1c1ccccc1 (stereo not given),-0.39,0.0
NCc1ccc(-c2ccc(Cl)cc2)o1,·,-5.0
Cn1c(=NC(=O)C2COc3ccccc3O2)sc2ccccc21 (stereo not given),·,7.3
CC1(C)CC(=O)C2=C(C1)OC(N)=C(C#N)C21CCCCC1,-0.31,1.0
O=C(O)c1ccsc1,·,1.2
CC(NC(=O)C1CC1)c1ccncc1 (stereo not given),0.59,-0.1

# Part of the list above, with bars between the fields.
structure | KSHV LANA nucl | Ab BasE inh
O=C(O)CC1=C(c2cccs2)N2CCN=C2S1 | · | 0.2
CC1(C)C(=O)Nc2ccccc2N1C(=O)Cn1nc(C(=O)O)c2ccccc2c1=O | · | 1.1
CCCCCCC1CCC/C1=N\NC(N)=O (stereo not given) | 0.003 | 1.0
COc1ccc(CCNC(N)=S)cc1OC | 0.53 | -0.6
CC(=O)N1C(O)CCN1c1ccccc1 (stereo not given) | -0.39 | 0.0

# Remaining list, next part
SMILES,KSHV LANA nucl,Ab BasE inh
O=C1C2CC=CCC2C(=O)N1CN(Cc1ccccc1)Cc1ccccc1 (stereo not given),·,2.1
Cn1ccnc1SCC(=O)c1ccc(NS(C)(=O)=O)cc1,·,7.5
O=S(=O)(Cc1ccc(Cl)cc1)CC(O)COc1ccc(F)cc1 (stereo not given),·,2.5
CC(C)NCc1nnc(-c2ccccc2Cl)o1,·,-1.2
CC(=O)Oc1ccccc1C(=O)N1CC(C)OC(C)C1 (stereo not given),0.46,3.4
CC(C)(C)C(=O)n1cc2c(n1)-c1cc(Cl)ccc1SC2,·,1.7
C=CCn1c(CCSCc2ccc(OC)cc2)n[nH]c1=S,-0.11,-0.7
COc1ccccc1NNC(=O)C1CCCCC1,0.32,1.1
COc1ccc(/C=N/NC(=O)CSc2nc3ccccc3o2)cc1OC,1.2,0.4
CCCCN1C(=O)/C(=C2\SC(N3CCOCC3)=NC2=O)c2ccccc21,0.11,-1.6
NC(=O)C1CCN(C(=O)CN(Cc2ccccc2)S(=O)(=O)c2ccccc2)CC1,·,0.6
N#Cc1cc(C(=O)c2cccs2)c2nc3ccccc3n2c1N,·,11
COc1ccc(C(=N/O)/C(=N/O)c2ccc(OC)cc2)cc1,-1.2,-2.1
O=c1oc2c3c(ccc2c2c1CCCC2)OCN(c1ccc(F)cc1)C3,-0.15,0.7
CCSc1nnc(SCc2cc(=O)oc3cc(OC)ccc23)s1,·,-1.8
CCOc1c(Cl)cnn(-c2ccccc2)c1=O,-1.6,-1.4
COc1ccc2c(c1)O/C(=C\c1cccc(OC(=O)N3CCOCC3)c1)C2=O,0.062,1.0
Cc1onc(-c2c(Cl)cccc2Cl)c1C(=O)NC(=S)N1CCOCC1,·,0.5
C=CCn1c(SCc2ccccc2C#N)nc2scc(-c3cccs3)c2c1=O,·,1.6
c1cc2c(cc1-c1nnc(NC3CCCCC3)o1)OCO2,·,1.0
O=C(N/N=C/c1ccco1)c1cccc(NC(=O)c2cccc(Cl)c2)c1,-0.23,-1.6
